D2 PAM: Beta-Arrestin HTS for Positive Allosteric Modulators of the Human D2 Dopamine Receptor: Potentiators; D(2) dopamine receptor (Homo sapiens), P14416; DiscoveRx D2 beta-arrestin cells, luminescence, 90 min; 100% = 57 uM dopamine signal; potentiation, % (no concentration beside the values); 360,000 compounds, 0.23% hits; active = potentiation of 50% or more; inconclusive = 30% to 50%; inactive = 30% or less;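 further: compound concentration not given in the record; tested on top of an EC20 dose of dopamine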
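PathHunter beta-arrestin assay in DiscoveRx D2 cells. Compounds were added with an EC20 of dopamine (50 nM final) for 90 min at 37 deg C. Luminescence was read 1 h after detection reagent, with 57 uM dopamine as the EC100 control.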
TRPML1 inh: qHTS for Inhibitors of the Human Mucolipin Transient Receptor Potential 1 (TRPML1); TRPML1-inducible cells, Ca2+ dye fluorescence, FDSS; stronger effect = lower value; inhibition of EC80 agonist-evoked calcium signal; activity change, negative = inhibition, % (no concentration beside the values); 390,000 compounds, 0.02% hits; AID 624415, 2012; in the data active means activity change below about -50%; inconclusive means about -30% to -50%; inactive means above about -30%;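 further: stimulus is agonist 54-4 at its EC80 concentration; on the % scale 0 is the no-effect control and ±100 the full control effect; compound concentration not given in the record; the text of the record puts the active cut at -80%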
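TRPML1-DL cells, Tet-induced overnight (~16 h, 37 °C) at 1,500 cells/well, were loaded with Ca8 no-wash dye plus quencher for 45-90 min at room temperature. Compounds were pinned during FDSS kinetic reading; agonist 54-4 at EC80 (4 uM final) then added.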
TRPV1 potentiator: HTS Assay for Compounds that Act as Potentiators of the Vanilloid Receptor 1; Transient receptor potential cation channel subfamily V member 1 (Homo sapiens), Q8NER1; TRPV1-expressing cells, Fluo-8 calcium influx, capsaicin EC20 potentiation; host cell line not named in the record; control for the full effect not named in the record; potentiation, % at 8.33 µM; 320,000 compounds, 0.02% hits; AID 540277, 2011; active means potentiation above 80%; inconclusive means 30% to 80%; inactive means below 30%; further: 0% is about no effect
Target sequence (Q8NER1 whole entry, looked up): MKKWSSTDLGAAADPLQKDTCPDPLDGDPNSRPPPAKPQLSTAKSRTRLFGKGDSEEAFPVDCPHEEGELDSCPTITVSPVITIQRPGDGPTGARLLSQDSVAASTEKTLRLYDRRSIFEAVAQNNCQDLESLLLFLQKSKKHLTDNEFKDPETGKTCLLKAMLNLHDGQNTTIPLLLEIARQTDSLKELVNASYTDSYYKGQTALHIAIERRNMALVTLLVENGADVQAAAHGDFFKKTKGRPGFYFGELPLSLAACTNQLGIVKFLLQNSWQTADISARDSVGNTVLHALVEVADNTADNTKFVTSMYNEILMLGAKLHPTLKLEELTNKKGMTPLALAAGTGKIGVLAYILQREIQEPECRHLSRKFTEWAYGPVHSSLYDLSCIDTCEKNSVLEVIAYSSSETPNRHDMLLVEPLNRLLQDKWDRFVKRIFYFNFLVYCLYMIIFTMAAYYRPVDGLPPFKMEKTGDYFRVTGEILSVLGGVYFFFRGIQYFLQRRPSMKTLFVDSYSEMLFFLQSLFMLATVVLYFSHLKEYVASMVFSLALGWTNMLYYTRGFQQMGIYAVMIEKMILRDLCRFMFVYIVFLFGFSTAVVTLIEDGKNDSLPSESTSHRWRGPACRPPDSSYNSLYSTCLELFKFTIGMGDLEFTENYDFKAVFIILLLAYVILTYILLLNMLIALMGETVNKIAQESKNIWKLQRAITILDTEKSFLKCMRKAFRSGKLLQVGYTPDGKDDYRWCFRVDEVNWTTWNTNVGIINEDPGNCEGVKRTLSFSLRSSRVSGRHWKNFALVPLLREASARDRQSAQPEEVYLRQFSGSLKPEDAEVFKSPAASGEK
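Fluo-8 calcium influx in TRPV1-expressing cells, kinetic read (ex 480/em 520 nm). Compound added and read 3 min for agonist activity, followed by capsaicin at EC20 final and 2 min further read for enhancement.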
CtBP-E1A blk: qHTS Assay for Inhibitors of the CtBP/E1A Interaction | CtBP / adenovirus E1A interaction (AlphaScreen) | AlphaScreen GST-E1A/His-CtBP binding, 1536-well; stronger effect = lower value; control for the full effect not named in the record | 340,000 compounds, 0.49% hits | activity change, % (test concentration not listed); in the data active means activity change below about -65%; inconclusive means about -30% to -65%; inactive means above about -30%; further: on the % scale 0 is the no-effect control and ±100 the full control effect
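Protein mix (5X: 125 nM each GST-E1A, His-CtBP) was incubated with pinned compound 2 h at 37 deg C in dark, in 50 mM Tris pH 8.0 buffer with 300 mM NaCl. Glutathione donor and nickel acceptor beads followed; AlphaScreen signal read after 1 h.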
TRPML1 ag: qHTS for Agonists of the Human Mucolipin Transient Receptor Potential 1 (TRPML1) | TRPML1-expressing cells, Ca2+ dye fluorescence, FDSS; host cell line not named in the record; reference of the full effect not given here | activation, % (no concentration beside the values) | 410,000 compounds, 0.12% hits; in the data active = activation above about 50%; inconclusive = about 30% to 50%; inactive = below about 30%; further: 0% is about no effect; the text of the record puts the active cut at 80%
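TRPML1-DL cells, Tet-induced overnight (~16 h, 37 degrees C), loaded 45-90 min at room temperature with Ca8 no-wash calcium dye plus quencher. FDSS fluorescence: 10 s baseline, compound pin-transfer, 110 s agonist read, then EC80 54-4 (4uM final) and 110 s antagonist read.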
Six1-Eya2 inh: qHTS Assay for Inhibitors of the Six1/Eya2 Interaction; Homeobox protein SIX1 (Homo sapiens) + Protein phosphatase EYA2 (Homo sapiens), …; AlphaScreen GST-Six1/His-Eya2 binding, biochemical; stronger effect = lower value; control for the full effect not named in the record; activity change, % (concentration not given with the values); 360,000 compounds, 0.56% hits; AID 651725, 2012; in the data active = activity change below about -65%; inconclusive = about -30% to -65%; inactive = above about -30%; further: on the % scale 0 is the no-effect control and ±100 the full control effect
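AlphaScreen with GST-Six1 and His-Eya2 (5X mix: 250 nM and 500 nM), glutathione donor and nickel acceptor beads; buffer 50 mM Tris pH 8.0, 300 mM NaCl, 1 mM TCEP; 1 h at 37 C in the dark.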
* hit, by the source's call; ? = inconclusive; . = no result given.

SMILES	D2 PAM	TRPML1 inh	TRPV1 potentiator	CtBP-E1A blk	TRPML1 ag	Six1-Eya2 inh
CCOC(=O)c1oc2cc(OCC(=O)OC)ccc2c(=O)c1-c1ccc(OC)c(OC)c1	7	19	16	5	0.2	7
OCCNC(=S)Nc1cc(Cl)cc(Cl)c1	-4	10	-6	-13	1.6	-1
O=C(Nc1nnc(Cc2ccccc2)s1)c1cnccn1	-82	-10	-10	.	0.8	-18
COc1ccc(/C=N/n2c(C)nc3c([nH]c4ccccc43)c2=O)cc1CN1CCCC(C)(C)C1	-7	-6	-12	0	0.6	-1
Cc1ccc(S(=O)(=O)N2C[C@]3(O)C[C@@H]4C(=O)N(c5ccccc5)C(=O)[C@@H]4C[C@]3(OC(=O)Nc3cccs3)C2)cc1	0	-2	.	2	-0.3	-3
CCCC12CN3CCN(CC(C3)/C1=N\NC(=O)Nc1ccccc1)C2	0	-6	-11	9	0.1	-8
O=C(Nc1ccc(F)cc1)c1ccccc1	-11	16	-11	6	0.0	1
Cc1ccc(-c2ccc(CO)o2)cc1N	-7	-17	-7	-1	1.2	-6
CCc1cccc(NC(=O)Cn2c3[n+](c4ccc(C(F)(F)F)cc42)CCCCC3)c1	-35	3	-3	-6	0.2	5
COC(=O)C(C(=O)OC)C(C(=O)OC)C(C(=O)OC)C(=O)OC	-8	-2	13	20	-0.6	9
CCc1nc2c(OCc3ccc(Cl)cc3Cl)cccn2c1N(C)C(=O)C(C)C	-18	.	.	-15	26	-21
Clc1ccc(-c2nc3n(n2)Cc2ccccc2-3)cc1	-2	4	-4	-1	0.5	0
CCC(CO)NCc1ccc2c(c1)n(C)c(=O)n2C (stereo unspecified)	-10	-3	5	-14	2.4	1
CCN(CC(=O)Nc1c(F)cccc1F)C(=O)/C=C/c1ccc2ccccc2n1	-8	-22	-6	-1	-0.2	-26
O=C(NNC(=O)C1CC2CCC1C2)c1sc2ccccc2c1Cl (stereo unspecified)	-13	0	-20	-5	0.3	-9

Compound profiles, as listed above:
COc1ccc(/C=N/n2c(C)nc3c([nH]c4ccccc43)c2=O)cc1CN1CCCC(C)(C)C1 is listed with D2 PAM = -7; TRPML1 inh = -6; TRPV1 potentiator = -12; CtBP-E1A blk = 0; TRPML1 ag = 0.6; Six1-Eya2 inh = -1
COC(=O)C(C(=O)OC)C(C(=O)OC)C(C(=O)OC)C(=O)OC is listed with D2 PAM = -8; TRPML1 inh = -2; TRPV1 potentiator = 13; CtBP-E1A blk = 20; TRPML1 ag = -0.6; Six1-Eya2 inh = 9

Remaining list, next part.
SMILES	D2 PAM	TRPML1 inh	TRPV1 potentiator	CtBP-E1A blk	TRPML1 ag	Six1-Eya2 inh
COc1cccc(CN(C)C(=O)c2cccc(S(=O)(=O)N3CCN(c4ccccc4)CC3)c2)c1	-9	1	.	-3	0.3	-8
COc1ccc(NC(=O)c2sccc2-n2cccc2)cc1	-5	-1	2	-11	-0.3	-15
O=c1c2ccccc2c(C=Nc2cccc(S(=O)(=O)NC3=NCCCCC3)c2)c(O)n1Cc1ccccc1	-4	.	-1	-7	.	-12
Cc1oc(-c2ccccc2)cc1C(=O)Nc1ccccc1	5	-11	20	6	-0.9	2
Cc1cc(NC(=O)CN2CCOCC2)n(-c2nc3ccccc3s2)n1	3	-7	0	3	-0.9	0
Cc1oc(-c2cccs2)nc1CS(=O)CC(=O)NCCCOC(C)C (stereo unspecified)	3	15	-8	8	1.5	1
COc1ccc(CCNC(=O)CSc2nc(-c3ccc(OC)c(OC)c3)ccc2C#N)cc1	-10	-2	6	5	1.8	7
CC(=O)Nc1ccc(S(=O)(=O)N[C@@H](C)C(=O)N(C)Cc2cccs2)cc1	-1	-14	5	3	0.0	10
Cc1sc2nc(CSCC(=O)Nc3ccccc3C#N)[nH]c(=O)c2c1C	-10	4	12	18	0.7	-11
CCCCN(C(=O)CCOc1ccc(OCC)cc1)c1c(N)n(Cc2ccccc2)c(=O)[nH]c1=O	7	9	.	-1	-0.6	-5
Cc1cc(C)cc(NC(=O)NC2CCCCCCC2)c1	-5	-2	-9	11	0.6	8
CC(C)CCNC(=O)NC(=O)COC(=O)C1=COCCO1	-9	-10	?	5	1.9	12
C=CCn1c(=O)c(C(=O)Nc2ccc(C)cc2)c(O)c2ccccc21	-5	-2	1	.	-0.5	-6
O=C(C1=C[C@@H](c2ccc3c(c2)OCO3)C[C@@H](OCc2ccc(CO)cc2)O1)N1CCOCC1	-1	-2	-11	-1	-0.7	5
COc1ccc2cc(CN(CC3COCCO3)S(=O)(=O)c3ccccc3)c(=O)[nH]c2c1 (stereo unspecified)	4	30	6	0	-0.3	0
CCc1nc2c(OCc3ccc(Cl)cc3)cccn2c1N(C)C(=O)c1ccccc1F	-5	.	.	-10	-1.1	-19
COC(=O)CN1C(=O)C(O)(CC(=O)c2cccc(Br)c2)c2ccccc21 (stereo unspecified)	-25	-13	-5	0	0.1	4
Cc1ccc(SCC(=O)N(C)CC(=O)Nc2cccc(F)c2)cc1	-31	1	-1	0	0.3	-3
CCCCc1cc(=O)oc2cc(C)cc(OC(C)C(=O)NC(Cc3c[nH]c4ccc(O)cc34)C(=O)O)c12 (stereo unspecified)	-19	.	19	-18	.	2
Clc1ccc(-c2nc3ccc(Br)cn3c2Cc2ccsc2)cc1	-2	.	.	5	-0.1	0
O=C(NNC(=O)c1nn(-c2ccc(F)cc2)ccc1=O)Nc1cccc(Cl)c1	0	0	-1	1	-0.1	17
Cc1ccc(C(=O)NCC(=O)Nc2cccc(C(F)(F)F)c2)cc1	-45	-7	-9	2	2.3	0
Cc1cc(C)n2nc(SC(C)C(=O)NC3CCCCC3C)nc2n1 (stereo unspecified)	-2	-6	6	15	0.0	1
CCCCCC(=O)Nc1ccccc1N1CCOCC1	-7	8	6	7	0.9	-5
CS(=O)(=O)N1CCC(C(=O)NCc2ccc(F)cc2)CC1	-13	17	11	.	0.6	6
Cc1cc(NC(=O)c2cc(-c3ccncc3)nc3c(C)cccc23)no1	-12	7	-2	?	0.5	-27
Cc1cc(C(=O)OCC(=O)NC2CC2)c2ccccc2n1	-2	3	-4	-4	0.2	10
CC(=O)N1CCN(CCN=CC2=C(O)CC(c3ccc(Cl)cc3)CC2=O)CC1 (stereo unspecified)	-8	9	?	5	0.3	2
C#CCN(Cc1ccco1)C(=O)c1cc(COc2cccc3cccnc23)on1	-1	10	.	-7	-1.0	-10
CN(C(=O)CSc1nc2ccccc2c(=O)n1-c1ccccc1Cl)C1CCS(=O)(=O)C1 (stereo unspecified)	7	1	.	-2	1.4	6
CCOc1cc(/C=N/NC(=O)c2ccc(NC(=O)C3CC3)cc2)ccc1O	6	24	4	-29	-0.1	-17
Cc1nn(-c2ccc(N3CCOCC3)nn2)c(C)c1CCC(=O)Nc1ccc(F)cc1	-9	19	-3	.	-0.3	-1
Cn1nc(-c2ccccc2)c2ncc(C(F)(F)F)cc21	-6	2	1	7	2.6	11
CC(C)C1C(=O)N(Cc2cn(CC3CCCCC3)nn2)CCS(=O)(=O)N1Cc1ccc(-c2ccncc2)cc1 (stereo unspecified)	-1	49	.	-5	0.2	0
COC(=O)[C@H](CCSC)NC(=O)NC1CC1	-17	-6	3	.	0.1	1
CCOc1ccc(Nc2nc(N)nc(CN3CCN(c4ccccc4F)CC3)n2)cc1	-3	14	6	-8	0.9	-11
CC1(C2CC2)NC(=O)N(CC(=O)N2CCN(c3ccccc3Cl)CC2)C1=O (stereo unspecified)	-17	7	5	-28	0.1	-6
O=C(C1CCN(c2nc(-c3ccccc3)nc3c2CCC3)CC1)N1CCCC1	-7	-14	.	-7	0.0	-3
COc1ccc(NC(=S)NCc2ccccc2Cl)c(OC)c1	-4	-14	?	-14	1.1	-4
C#CCNC(=O)C1=C[C@H](c2cn(C(C)=O)c3ccccc23)C[C@H](OCc2ccc(CO)cc2)O1	23	-20	26	-5	-0.9	0
COc1cc(OC)cc(C(=O)Nc2cc(NC(=O)c3ccco3)ccc2OC)c1	-4	5	0	-11	2.3	-11
COc1cc(/C=C/C(=O)NCC2CCCCC2)cc(OC)c1OC	-13	-7	8	3	-0.3	-2
Cc1ccc(C(=O)Nc2ccc(N3CCN(C)CC3)cc2)cc1C	-3	-5	8	.	-0.4	0
CC1CC(C)CN(S(=O)(=O)c2ccc(NC(=O)C3CSC4(C)CCC(=O)N34)cc2)C1 (stereo unspecified)	-1	-6	-4	3	-0.6	-8
O=C(/C=C1\SC(=O)N(CC(=O)Nc2ccc(Cl)cc2)C1=O)Nc1ccc(F)cc1	-8	-8	2	-5	-0.8	-5

Two of the compounds above, as a markdown table.
| structure | D2 PAM | TRPML1 inh | TRPV1 potentiator | CtBP-E1A blk | TRPML1 ag | Six1-Eya2 inh |
| --- | --- | --- | --- | --- | --- | --- |
| COC(=O)[C@H](CCSC)NC(=O)NC1CC1 | -17 | -6 | 3 | . | 0.1 | 1 |
| Cn1nc(-c2ccccc2)c2ncc(C(F)(F)F)cc21 | -6 | 2 | 1 | 7 | 2.6 | 11 |

Next part.
SMILES	D2 PAM	TRPML1 inh	TRPV1 potentiator	CtBP-E1A blk	TRPML1 ag	Six1-Eya2 inh
CCc1ccc(C(=O)NNC(=O)c2c(CC)noc2C)cc1	5	6	8	6	-0.2	-4
CS(=O)(=O)c1ccc(-c2cnc3c(NC=O)cc(-c4ccsc4)cn23)cc1	3	.	.	-14	-0.5	-16
Cn1nc(C(=O)OCC(=O)c2ccc[nH]2)c2ccccc2c1=O	-7	22	-22	0	0.6	-7
CC1Sc2ccc(S(=O)(=O)CCC(=O)N3CCc4ccccc43)cc2NC1=O (stereo unspecified)	-4	-14	1	1	0.9	0
COc1ccc(CN2CCNC(=O)C2CC(=O)N(C)C2CCOCC2)c(F)c1 (stereo unspecified)	18	20	12	2	0.3	7
COc1ccc(Oc2c(Cl)cnn(-c3ccccc3)c2=O)cc1	-19	6	-1	2	3.6	3
Cc1ccc(S(=O)(=O)N/N=C\c2ccc3c(c2)OCO3)cc1C	-4	-4	5	-2	-0.4	10
Cc1cccc(OCC(=O)Nc2cccc3nsnc23)c1	-12	10	-4	1	3.6	15
COc1ccc(CC(=O)NCc2nc(-c3ccccc3)no2)cc1	3	2	-12	3	-0.5	-2
CN(Cc1ccccc1)S(=O)(=O)c1ccc(NC(=O)C2CCCCC2C(=O)O)cc1 (stereo unspecified)	1	14	.	18	0.2	2
CCOC(=O)C1(CCc2ccccc2)CCN(Cc2ccccn2)CC1	-10	3	-1	0	0.7	10
CC(C)(C)c1nc(SCC(=O)N2CC(=O)Nc3ccccc32)c2ccccc2n1	4	-1	2	-17	0.1	-2
CN(C)C(=O)c1ccc(-c2n[nH]c(=O)c3ccccc23)cc1	-2	-16	-2	-23	0.1	-5
Cc1[nH]n(-c2ccc(Cl)cc2)c(=O)c1C=Nc1ccc(S(=O)(=O)N2CCOCC2)cc1	1	-8	-7	?	0.4	-25

High-throughput results as filed in PubChem BioAssay.
